Source: PubChem BioAssay (Broad Institute)
Tg IFNy HTS: blocks Toxoplasma gondii growth in the presence of IFN-gamma | Toxoplasma gondii growth in IFN-gamma-treated host cells; stronger effect = lower value; reference of the scale not given here | activity change, negative = inhibition, %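 (about 20 µM by stock and volumes)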 | 69,000 compounds, 3.8% hits | AID 1259416;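 active = below -70%; inconclusive = fit judged invalid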;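 also: host cells are HeLa cells infected with Toxoplasma gondii; parasite growth read as luciferase light; one replicate is shown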
* marks the source's active call; other numbers are inactive results; ? = inconclusive.

Structure | Tg IFNy HTS
CCn1c(C2CCCN(S(=O)(=O)c3ccc(C)c(C)c3)C2)n[nH]c1=O (stereo unspecified) | 8
CS(=O)(=O)N1[C@@H](C#N)[C@H](c2ccc(-c3ccccc3F)cc2)[C@@H]1CO | 6
CCNC(=O)[C@@H]1C[C@H](N)CN1C(=O)c1scc2c1CCCC2 | 90
Cc1ccc2c(C(=O)NCCn3cccn3)cc(C)nc2c1 | -1
CC(C)c1nccc(-c2nccn2CC2(O)CCN(C)CC2)n1 | 3
COc1ccc(-c2ccc(C(C)O)cc2)c2cccnc12 (stereo unspecified) | -3
CC1=C(C(=O)NCCCN(C)c2ccccc2)C2(CCN(S(C)(=O)=O)CC2)OC1=O | 78
COc1ccc2c3c(n(C)c2c1)[C@H](CO)N(C(=O)Cc1ccccn1)CC31CN(CC2CCCCC2)C1 | -45
CSc1ncc(C(=O)N2CCC(COc3ccccn3)CC2)cn1 | 3
CC(C)CCCC1CN(C(=O)c2ccccc2-c2ncc[nH]2)CCO1 (stereo unspecified) | 10
O=C(NCc1ccccc1Cl)c1nc(Nc2ccccc2)c2ccccc2n1 | -25
Cc1nnc(NC(=O)NCC(c2ccccc2)c2ccccc2)s1 | -9
CC1CCN(C(=O)COc2ccccc2-c2nccn2-c2cccnc2)CC1 | 0
Cc1ccc(-c2ccccc2[C@H]2[C@@H](C#N)N(C(=O)c3cccc(F)c3)[C@H]2CO)cc1 | 17
CC[C@@]1(C(=O)O)C[C@H](C(=O)N2CC=CCC2)[C@H](c2ccc(OC)cc2)N1C | -13
CC(C)c1noc(-c2cc(=O)n(CC(=O)Nc3ccccc3F)c3ccccc23)n1 | -6
C=CCN(C(=O)Cn1nnc2ccccc21)C(C(=O)NCCOC)c1cccs1 (stereo unspecified) | -1
Cc1cc2nc3c(c(C(F)(F)F)n2n1)CCc1ccccc1-3 | -53
CCc1nnc(CN(C(=O)c2ccccc2N2CCCC2)C(C)C)o1 | -6
CC(=O)N1CCC(C(=O)NCc2ccccc2)(N(Cc2cccnc2)C(=O)c2ccc(Br)cc2)CC1 | -10
Cc1ccc(NC(=O)C2C(=O)NC34CCCCC3C2c2ccccc2O4)cc1C (stereo unspecified) | -16
Cc1cccc(S(=O)(=O)N2CC[C@H]3[C@@H]2CCN3c2ncccn2)c1 | 2
O=C(c1cnc(-c2cccnc2)nc1)N1CCO[C@@H]2CCCC[C@H]21 | 0
CCN(CC)C(=O)C1CCCN(C(=O)CCC2(Cc3cccc4ccccc34)CCC(=O)N2)C1 (stereo unspecified) | 1
CCCCCCCCCCCc1nc2ccccc2o1 | 4
Cc1noc(C)c1NC(=O)N1C[C@H](O)COC[C@H]2O[C@H](CC(=O)N[C@@H]3CCN(Cc4ccccc4)C3)CC[C@@H]21 | 15
CN(CCNS(=O)(=O)c1ccc2[nH]c(=O)ccc2c1)C1CCCCC1 | -29
Cc1nnsc1CN(C)C(=O)c1cc(CC(C)C)nn1C | -32
CCS(=O)(=O)N1CCc2nc(N3CCOCC3)nc(NC3CC3)c2C1 | -5
CC(C)CC(NC(=O)c1cn(C)c2ccccc12)c1nnc2n1CCNCC2 (stereo unspecified) | 72
N#Cc1c(N)nc2ccc(Cl)cc2c1-c1ccccc1 | -63
CC1=C(C(=O)NCCN(C)C2CCCCC2)C2(CCN(Cc3ccccc3)CC2)OC1=O | 25
C[C@]12CCC(=O)C[C@@H]1CC[C@@H]1[C@@H]2CC[C@]2(C)C=CC[C@@H]12 | -9
CN1C[C@H]2[C@H](C(=O)Nc3ccccc3)CCS(=O)(=O)[C@H]2C1 | 100
COc1ccc(NC(=O)c2cccc(-n3cnnn3)c2)cc1 | 0
CC(C)C(=O)NCCN1CCOCC1 | 94
Cc1c(C#N)c(-n2cccc2)n(Cc2cccs2)c1C | 19
COc1ccc(-c2nc(Cn3c(=O)c4cccnc4n(-c4ccccc4)c3=O)c(C)o2)cc1OC | 9
Cc1ncnc2c1CCN(C(=O)N1CCOCC1)CC2 | -2
CC(C)c1ccc(CC(=O)NCC2(C)CCN(C)C2)cc1 (stereo unspecified) | 4
Cn1cc(-c2cc(C(=O)N3CCC(c4ncc(Cl)cc4S(C)(=O)=O)CC3)on2)cn1 | 8
Cn1cc(-c2cnc(-c3ccccc3)nc2)cc1C(=O)NCCC#N | 8
CCc1ccc(CCC(=O)N2CCCC3(CNC(=O)O3)C2)cc1 (stereo unspecified) | 2
CCC1=N[C@@]2(CC[C@@H]3CN(C(=O)NC4CCCC4)C[C@H]32)C(=O)N1CC | -6
Cc1ncsc1CCC(=O)N1CCCC(N(C)C)CC1 (stereo unspecified) | 1

Taken from above.
COc1ccc(-c2nc(Cn3c(=O)c4cccnc4n(-c4ccccc4)c3=O)c(C)o2)cc1OC – Tg IFNy HTS = 9
CN1C[C@H]2[C@H](C(=O)Nc3ccccc3)CCS(=O)(=O)[C@H]2C1 – Tg IFNy HTS = 100

Continuation:
Structure | Tg IFNy HTS
OC1CCN(c2ccnc(NCCc3ncc[nH]3)n2)CC1 | -2
CN(Cc1ccccn1)C1COC2(CCN(c3ncccn3)C2)C1 (stereo unspecified) | 3
CCCc1cc(C(=O)N2CCC(Cc3nn(C)c(=O)n3CC)CC2)ccn1 | -2
Cn1nc(C(C)(C)C)cc1C(=O)Nc1ccc(Cl)cc1 | ?
COc1ccc(OC)c(NC(=O)Nc2ccc(-c3nc(-c4ccc(C)cc4C)co3)cc2)c1 | -40
Cn1c(/C=C/C=C/N2CCCC2)nc2ccccc2c1=O | 44
CN1CCN(c2cc(N(C)CCCn3cccn3)nc(N)n2)CC1 | 22
CCOC(=O)c1noc2nc(C)n(Cc3nc(-c4ccccc4Cl)oc3C)c(=O)c12 | 38
CN(C[C@H]1N[C@@H](CO)[C@@H]1c1ccc(C2=CCCC2)cc1)C(=O)c1cccc(F)c1 | -52
CN(Cc1ccoc1)C(=O)C1CCCN(C2CCN(C(=O)C3CC3)CC2)C1 (stereo unspecified) | 8
Cn1cc(CN(Cc2ccc(S(C)(=O)=O)cc2)C2CC2)cn1 | 1
Cc1nc2c(C)cccc2cc1C(=O)NCCS(=O)(=O)NC1CCCCC1 | 81
CC(=O)NCc1cccc(-c2ccccc2Cl)c1 | 1
O=C(C[C@@H]1CC[C@H]2[C@@H](COC[C@@H](O)CN2C(=O)Cc2ccccc2)O1)NC1Cc2ccccc2C1 | -44
CCOC(=O)[C@@H](N)CCC(=O)N[C@@H](CSCc1ccccc1)C(=O)N[C@@H](C(=O)OCC)c1ccccc1 | 19
NCCCC[C@H](NC(=O)C(F)(F)F)C(=O)O | 1
CN(Cc1cnc(N)nc1)CC1(O)CCCN(CCc2ccccc2)C1=O (stereo unspecified) | 1
CCOc1ncccc1C(=O)N1Cc2cnc(Cc3ccc(OC)cc3)nc2C1 | 5
CC12CCCCN1CCCc1c2[nH]c2ccccc12 (stereo unspecified) | 5
CCOc1cc(C(=O)N2CCC3(CC2)Nc2cc(C)ccc2-n2cccc23)cc(OCC)c1OCC | -13
CC12CCC(C(=O)O)(c3nc(C#N)c(C#N)nc31)C2(C)C (stereo unspecified) | 72
Cc1oc(-c2ccc(C(=O)N(C)Cc3ccco3)cc2)nc1CN1CCN(c2ccccc2)CC1 | 35
O=C(O)CCS(=O)(=O)c1ccc2[nH]c(=O)c(=O)[nH]c2c1 | -34
O=C(N[C@H]1CC[C@H](CCn2cc(-c3ccccc3F)nn2)O[C@H]1CO)c1ccc2c(c1)OCO2 | 4
CNC(=O)[C@]12CCC3(CCN(CC4CCOCC4)CC3)[C@H]1CN(C(C)=O)C2 | -2
c1ccc(-c2nsc(-n3ccc(-c4cccs4)n3)n2)cc1 | 319
Cc1cc(C2CCCN2C(=O)c2cc(C(F)(F)F)nn2C)no1 (stereo unspecified) | -45
CN(Cc1ccc(-n2cccn2)cc1)Cc1cccc2nccnc12 | 16
CC1CCN(S(=O)(=O)c2ccc3c(ccc(=O)n3CC(=O)NCc3ccccc3Cl)c2)CC1 | -35
O=C(NCCc1csc(-c2ccc(F)cc2)n1)c1c(F)cccc1Cl | -48

Gathered by group, the compounds so far containing a CF3 group (3)
Structure | Tg IFNy HTS
Cc1cc2nc3c(c(C(F)(F)F)n2n1)CCc1ccccc1-3 | -53
NCCCC[C@H](NC(=O)C(F)(F)F)C(=O)O | 1
Cc1cc(C2CCCN2C(=O)c2cc(C(F)(F)F)nn2C)no1 (stereo unspecified) | -45

(further entries)
Structure | Tg IFNy HTS
CC(C)NC(=O)Nc1ccc2c(c1)C(=O)N([C@@H](C)CO)C[C@@H](C)[C@@H](CN(C)C(=O)C1CCCCC1)OCCCC[C@@H](C)O2 | 47
Nc1ncnc2c1nc(Br)n2[C@@H]1O[C@@H]2COP(=O)(O)O[C@H]2[C@H]1O | 0
CCc1nnc(CNC(=O)C2COc3c(cccc3OC)C2)s1 (stereo unspecified) | -11
Cc1cccc(C2c3[nH]c4ccccc4c3CCN2C(=O)c2cccc(F)c2F)n1 (stereo unspecified) | -13
COc1cccc(NC(=O)Nc2ccc(-c3nc(-c4cccc(Br)c4)co3)cc2)c1 | 19
CCn1ncc(S(=O)(=O)N2CCCCC2c2cc(C(=O)NC3CCCC3)n[nH]2)c1C (stereo unspecified) | 21
CC(CO)CN(Cc1ccccc1)C(=O)c1cccc2cccnc12 (stereo unspecified) | 4
COc1ccc(S(=O)(=O)NCCc2sc(-c3ccc(OC)c(OC)c3)nc2C)cc1C | 185
O=C(NCCc1nc(-c2ccc(Cl)cc2)cs1)c1nn2cccnc2c1Cl | 25
Cc1cc(CNC(=O)c2cc(-c3ccncc3)c3cnccc3n2)on1 | 5
Cc1ccccc1CNC1=NCCNC12CCN(S(=O)(=O)c1ccc(C(C)C)cc1)CC2 | -23
CNC[C@H]1OCc2cnnn2CCCC(=O)N([C@@H](C)CO)C[C@@H]1C | 290
COc1cccc(C2CCN(C(=O)c3cccc(NCC(=O)O)c3)C2)c1OC (stereo unspecified) | -2
COc1ccc(Cc2nnc(SCc3ccc(Cl)cc3)o2)cc1OC | 7
CN(C)C1CCN(C(=O)c2cnc(-c3noc4cc(-c5ccc(F)cc5)ccc34)s2)CC1 | -82*
Cc1cc(C)n(Cc2ccc(C(=O)N(C)C(C)c3ccon3)cc2)n1 (stereo unspecified) | 5
Cc1cnc(C)c(-c2cc(O)c3c(c2)CN(CCC2CCCN2C)CCO3)n1 (stereo unspecified) | -3
O=C(CC1(O)C(=O)Nc2ccccc21)c1ccccc1O (stereo unspecified) | 12
O=C(Nc1ccccc1)Nc1ccccc1N1CCOCC1 | -14
CCN(CC)c1ccc(NC(=O)CN2C(=O)CCc3cc(Br)ccc32)c(C)c1 | 251
CCN(CC)CCNC(=O)c1ccc(I)cc1 | 12
O=C(c1ccc(CO)o1)N1C[C@H]2CC=CC[C@H]2C1 | 2
O=C(c1ccc(Cn2cnnn2)cc1)N1CCN(CC2CCCO2)CC1 (stereo unspecified) | 40
CCCC#Cc1ccc([C@@H]2[C@@H](CO)N3C(=O)CN(C(=O)Nc4cccc(F)c4)C[C@H]23)cc1 | 15
COCC(=O)N1[C@@H]2c3ccc(/C=C/c4ccccc4)c(=O)n3C[C@H]1[C@H](CO)[C@H]2C(=O)N1CCOCC1 | -5
CCC(NCCc1ccc(O)cc1)C(=O)NC1CCCCC1 (stereo unspecified) | 6
O=C(CCSc1ccccn1)c1ccc(Cl)cc1 | 25
O=C(NCCc1csc(-c2ccc(C(F)(F)F)cc2)n1)C(=O)Nc1ccc2c(c1)OCCO2 | 186
COc1cccc(-n2c(=O)c(C(=O)Nc3cc(F)ccc3F)c(O)c3cccnc32)c1 | 189
COC(=O)CN1CCN(C(=O)c2ccc3cccc(F)c3n2)C(C)C1=O (stereo unspecified) | 3

A second format for some results above.
Cc1cnc(C)c(-c2cc(O)c3c(c2)CN(CCC2CCCN2C)CCO3)n1 (stereo unspecified)
  Tg IFNy HTS = -3
O=C(CC1(O)C(=O)Nc2ccccc21)c1ccccc1O (stereo unspecified)
  Tg IFNy HTS = 12
O=C(Nc1ccccc1)Nc1ccccc1N1CCOCC1
  Tg IFNy HTS = -14
CCN(CC)c1ccc(NC(=O)CN2C(=O)CCc3cc(Br)ccc32)c(C)c1
  Tg IFNy HTS = 251

Next part.
Structure | Tg IFNy HTS
COCCN(Cc1cnn(C)c1)C(=O)c1ccc2[nH]c3c(c2c1)CCCC3 | -19
O=C(C1CCC1)N1C[C@@H](O)[C@H](NCc2cccnc2)C1 | 4
Cc1cc2cc(NC(=O)c3ccc(-n4cnnc4)cc3)cc(Cl)c2o1 | -9
C[C@@H]1CCCCO[C@H](CN(C)C(=O)Nc2ccccc2)[C@@H](C)CN([C@H](C)CO)C(=O)c2cc(NC(=O)Nc3ccccc3)ccc2O1 | 67
COCCN1C(=O)N(C(C)C)C(=O)C12CCN(Cc1cccc(Oc3ccc(Cl)cc3)c1)CC2 | -45
Cc1ccc(NC(=O)CC(=O)NCc2ccccc2-n2cncn2)cc1 | 11
Nc1c(C(=O)c2ccccc2)oc2nc3c(c(-c4ccco4)c12)CCc1ccccc1-3 | 73
Cc1cccc(N2CC[C@H]3[C@H](CO[C@H]3CNS(C)(=O)=O)C2)n1 | -38
Oc1cccc(-c2cn(Cc3scnc3-c3ccccc3)nn2)c1 | -8
CC(C)(C)S(=O)(=O)c1ccc(C(=O)O)s1 | 12
O=C(c1ccccc1C1CCNC1)N1CCC(O)(c2cccnc2)CC1 (stereo unspecified) | -3
c1ccc2c(c1)ncn2-c1ccc(CN2CCCC2)cc1 | -53
Cn1ccnc1-c1nccn1-c1ccc(OCC2CCCO2)cc1 (stereo unspecified) | 7
c1cn(CCCn2ccnc2-c2cnc[nH]2)cn1 | 1

Only part of the results is shown, so the mix of outcomes need not match the whole.
